Screens from PubChem.
NS1 inh – qHTS Assay for Inhibitors of Influenza NS1 Protein Function | S. cerevisiae slowed by influenza A NS1, growth recovery by OD600 | Potency, µM (doses to about 46.1 µM), inactives show at the highest dose activity, positive = more growth | 0.4% of 270,000 active | AID 2326, 2010; note: actives are rising curves; nearly all actives have a fitted effect of over 50% in size
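Read-out: OD600 growth recovery of NS1-expressing budding yeast. Cells grown overnight at 30C in -URA glucose medium, washed, resuspended and diluted 1:100 in 2% galactose assay medium, pH 6.0. Same strain lacking NS1 served as positive control.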
Lassa entry inh – qHTS for Inhibitors of binding or entry into cells for Lassa Virus; Lassa virus pseudotype entry inhibition, cell reporter; control for the full effect not named in the record; Potency, µM (highest dose often 37.9 µM), inactives show at the top dose activity change, negative = inhibition, hits mostly inhibitors; 1.2% of 300,000 active; AID 540256, 2011; active means well fitted inhibition curve with a large enough effect; inconclusive means small, poorly fitted or top-dose-only effect, or effect the other way; inactive means flat fitted curve, though single readings scatter; tested in HEK293 cells; note: % is set by controls: 0 for no effect and ±100 for the full control effect; nearly all actives have a fitted effect of over 50% in size; luciferase read-out
Cruzain Triton – qHTS Assay for Promiscuous and Specific Inhibitors of Cruzain (with detergent). 0.43% of 200,000 active. Potency, µM, for the others: max response, negative = inhibition, actives largely listed as inhibitors. purified cruzain, Z-FR-AMC fluorescence, 0.01% Triton; active = well fitted curve in the direction sought with a large enough effect; inconclusive = small, poorly fitted or top-dose-only effect, or another doubt; inactive = no such curve, though single readings can be large; an effect the other way counts as inactive or inconclusive;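 note: plate controls were neutral wells for no effect and buffer without enzyme for full effect; nearly all actives have a fitted effect of over 40% in size; top concentration of the series not given in the record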
Target sequence (P25779 123-467 limits assumed): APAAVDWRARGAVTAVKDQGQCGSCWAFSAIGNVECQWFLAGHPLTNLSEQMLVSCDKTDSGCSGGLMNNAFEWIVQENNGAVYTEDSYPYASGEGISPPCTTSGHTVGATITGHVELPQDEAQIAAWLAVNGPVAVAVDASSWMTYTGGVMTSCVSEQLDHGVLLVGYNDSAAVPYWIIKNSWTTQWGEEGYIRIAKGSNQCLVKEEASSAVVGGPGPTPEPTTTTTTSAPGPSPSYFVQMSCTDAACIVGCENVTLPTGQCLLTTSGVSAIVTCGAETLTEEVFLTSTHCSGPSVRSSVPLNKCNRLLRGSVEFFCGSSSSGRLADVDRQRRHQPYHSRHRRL
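15 min RT preincubation of 1.5 nM cruzain with compound, then 2 uM Z-FR-AMC added; kinetic AMC fluorescence, 60 s delta. Triton X-100 0.01%, pH 5.5.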
Cruzain noTriton – qHTS Assay for Promiscuous and Specific Inhibitors of Cruzain (without detergent) | Potency, µM, for the others: max response, negative = inhibition, most hits filed as inhibitors | purified cruzain, Z-FR-AMC fluorescence, no detergent | 2.3% of 200,000 active; active = well fitted curve in the direction sought with a large enough effect; inconclusive = small, poorly fitted or top-dose-only effect, or another doubt; inactive = no such curve, though single readings can be large; an effect the other way counts as inactive or inconclusive;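 note: plate controls were enzyme without inhibitor for no effect and buffer without enzyme for full effect; nearly all actives have a fitted effect of over 40% in size; top concentration of the series not given in the record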
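Purified cruzain at 1.5 nM, pre-incubated 15 min with compound at room temperature in 100 mM sodium acetate pH 5.5, 5 mM DTT, 0.00005% Triton X-100. Reaction started with 2 uM Z-FR-AMC; AMC fluorescence increase over 60 s gives rate.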
RE007 growth inh – qHTS Assay for Inhibitors of the HIV-1 protein Vpr | S. pombe RE007 Vpr strain, BacTiter-Glo ATP luminescence, 24 h; control for the full effect not named in the record | Potency, µM (doses to about 92.2 µM), for the others: at the top dose activity change, negative = less growth | 0.21% of 360,000 active | AID 651644, 2012; active = well fitted falling curve with a large enough effect; inconclusive = small, poorly fitted or top-dose-only effect; inactive = no such curve, though single readings can be large or run the other way;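 note: % is set by controls: 0 for no effect and ±100 for the full control effect; nearly all actives have a fitted effect of over 50% in size; the assay follows cell death caused by Vpr and the record does not say whether a fall means rescue or toxicity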
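Fission yeast strain RE007, carrying one chromosomally integrated HIV-1 vpr copy, was seeded at OD 0.01 in PMG+AL medium with 23 nL pinned compound. After 24 h at 30 °C and 99% humidity, viability was read by BacTiter-Glo luminescence.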
StopGo reporter – High Throughput Screening for Foot and Mouth Disease Virus Antivirals | human cells with a luciferase reporter of 2A StopGo recoding; control for the full effect not named in the record | Potency, µM (titrated, usually from 57.9 µM), for the others: at the highest dose signal change, negative = less light | 1.2% of 410,000 active | AID 1159524, 2015; active = well fitted falling curve with a large enough effect; inconclusive = small, poorly fitted or top-dose-only effect; inactive = no such curve, though single readings can be large or run the other way; tested in HEK293T cells; note: % is set by controls: 0 for no effect and ±100 for the full control effect; nearly all actives have a fitted effect of over 45% in size; luciferase light after 4 h
SARS PLP yeast – qHTS of Yeast-based Assay for SARS-CoV PLP; S. cerevisiae expressing SARS-CoV PLpro, growth rescue; control for the full effect not named in the record; Potency, µM (doses to about 32.9 µM), for the others: at the top dose activity, positive = growth rescue; 0.19% of 330,000 active; AID 485353, 2010; note: 0% is about no effect; nearly all actives have a fitted effect of over 55% in size; growth read by luminescence after 48 h
MARV entry inh – qHTS for inhibitors of binding or entry into cells for Marburg Virus | Marburg virus pseudotyped entry inhibition, cell reporter; control for the full effect not named in the record; about a third of the inactives were read at about 46 µM | AID 540276, 2011 | Potency, µM (titrated, usually from 37.8 µM), without a hit: top-dose activity change, negative = inhibition, usual class: inhibitors | 1.8% of 300,000 active; active = well fitted inhibition curve with a large enough effect; inconclusive = small, poorly fitted or top-dose-only effect, or effect the other way; inactive = flat fitted curve, though single readings scatter; tested in HEK293 cells; about a fifth of its hits are not listed in these tables; note: % is set by controls: 0 for no effect and ±100 for the full control effect; luciferase read-out
The depositor's hits bear a star; u = inconclusive; x = not tested or not shown; [ ] = another dose, or the depositor's remark. Unless noted, calls come from the whole dose curve; as a rule, active means well fitted rising curve with a large enough effect; inconclusive means small, poorly fitted or top-dose-only effect; inactive means no such curve, though single readings can be large or run the other way. Potency is the fitted concentration of half-maximal effect.

SMILES	NS1 inh	Lassa entry inh	Cruzain Triton	Cruzain noTriton	RE007 growth inh	StopGo reporter	SARS PLP yeast	MARV entry inh
CCOC(=O)N1CCN(S(=O)(=O)N2CCCC(C(=O)NCc3ccc(OC)cc3)C2)CC1 (stereo not drawn)	u	-1%	x	x	6%	-14%	6%	1%[46.1 µM]
COc1ccc(N2C(=O)C3CCCN3C2c2ccc(F)cc2)cc1Cl (stereo not drawn)	-1%	10%	-2.5%	-9%	17%	8%	-14%	-3%
CNC(=S)N(Cc1ccc(Cl)cc1)Cc1cccs1	3%	u	x	x	1%	-27%	0%	u
COc1ccc(Cl)cc1C(=O)Nc1ccccc1N1CCN(C)CC1	-4%	-22%	1.0%	-10%	-10%	0%	-9%	u
CCOC(=O)NC(=O)C(=CNc1ccccc1OC)C(=O)NC(=O)OCC	10%	4%	-3.6%	6%	-23%	-9%	-6%	-1%
Cc1ccccc1/C=N/n1c(COc2ccccc2)n[nH]c1=S	6%	u	x	x	1%	-10%	-3%	8%[46.1 µM]
COCc1nc2ccccc2n1Cc1ccccc1Br	2.8µM*	-1%	-4.9%	19%	15%	u	u	-19%
O=C(CNC(=O)c1ccco1)NCC(=O)OCc1ccc(Cl)cc1	0%	4%	2.5%	-7%	18%	11%	18%	15%[46.1 µM]
O=C(O)CCSc1nnnn1-c1ccccc1	0%	13%	-1.8%	-3%	20%	9%	4%	17%
CCc1nn(CC(=O)N2CCN(c3cccc(C(F)(F)F)c3)CC2)c(=O)c2cc3occc3n12	x	16%[46.1 µM]	-1.1%	-20%	x	-15%	x	-5%[46.1 µM]
O=C(Nc1ccc(OC(F)(F)F)cc1)c1cnc2n(c1=O)CCS2	-31%	x	0.7%	-26%	8%	-4%	-6%	x
COc1ccc(N=C2S/C(=C\c3ccc(C)s3)C(=O)N2CC(C)C)cc1	8%	6%	5.0%	0%	4%	-17%	3%	-17%
COc1ccccc1CNC(=O)CCC(=O)N1Cc2ccccc2Oc2ncccc21	x	15%[46.1 µM]	0.4%	-5%	x	-24%	x	x
COc1cc(S(=O)(=O)Nc2ncccc2C)c(OC)cc1Cl	2%	15%	1.3%	-6%	1%	3%	-1%	0%[46.1 µM]
COc1ccccc1N/C(=N/S(=O)(=O)c1ccc(C)cc1)c1ccc(Cl)cc1	-7%	u	-5.2%	-11%	1%	33%[activator]	-27%	-8%
COc1cccc(C(c2cccc(OC)c2)c2ccccc2C(=O)O)c1	x	3%	x	x	18%	-25%	x	9%
Cc1c(Cl)cccc1NC(=S)N(CCN(C)C)C(C)c1ccco1 (stereo not drawn)	-30%	x	x	x	2%	-3%	-2%	x
NC(=O)c1cccc(N=Cc2cc(Cl)cc(Cl)c2O)c1	-4%	-11%[46.1 µM]	x	x	-13%	-9%	1%	13%[46.1 µM]
Cc1ccc(-n2ncc3c2CCCC3NC(=O)c2ocnc2C)cc1C (stereo not drawn)	-5%	u	x	x	2%	u	x	u
COc1cc(OC)c(OC)cc1CN1CCc2nc(N3CCN(c4ccccc4F)CC3)ncc2C1	x	-2%[46.1 µM]	-5.3%	0%	x	11µM*	x	x
COc1ccc(OCC(=O)N/N=C(\C)c2cccs2)cc1	3%	x	x	x	-8%	43%[activator]	1%	x
Cc1nnc(SCCCCSc2nnc(C)c(=O)[nH]2)[nH]c1=O	x	14%	x	x	17%	-7%	1%	1%[46.1 µM]
Cc1ccc(-n2nc3ccc(NC(=O)COc4ccccc4)cc3n2)cc1Cl	x	u	-1.2%	4%	x	-6%	x	x
CC(C)C(NC(=O)CNC(=O)OC(C)(C)C)C(=O)NCc1ccc(Cl)cc1 (stereo not drawn)	-4%	1%	x	x	-8%	-15%	-2%	u
CCOC(=O)Nc1cc(C)ccc1OC	-5%	6%	8.2%	-12%	5%	5%	4%	18%[46.1 µM]
CC1CCN(C(=S)c2cn(Cc3cccc(F)c3)c3ccccc23)CC1	13%	-2%	-8.4%	u	-7%	10%	22%	u
CSc1nnc(CCNS(=O)(=O)c2ccc(Br)cc2)n1C	6%	16%	x	x	26%	2%	11%	-10%[46.1 µM]
Nc1cc(N2CCCCCC2)c2nonc2c1[N+](=O)[O-]	-1%	x	x	x	-12%	-24%	0%	x
COc1ccc(NC(=O)C2C(=O)N(C)C3(C)CC2c2ccccc2O3)cc1 (stereo not drawn)	-8%	4%	3.9%	2%	2%	0%	5%	23%
Cc1ccc(COn2c(-c3ccc(Cl)cc3)nc3ccc([N+](=O)[O-])cc32)cc1	-144%	24%	3.8%	0%	2%	52%[activator]	-2%	u
Cc1ccc(S(=O)(=O)N2CCC(C(=O)NNC(=O)c3ccc(F)cc3)CC2)cc1	x	-37%	x	x	-19%	-12%	5%	u
CCCS(=O)(=O)Nc1ccc2cn[nH]c2c1	x	16%[46.1 µM]	x	x	0%	-7%	1%	0%[46.1 µM]
O=C(Nc1ccc2c(c1)OCCO2)c1coc2ccccc2c1=O	-1%	-6%	-1.5%	-10%	-11%	7.9µM*	-18%	-5%
COc1ccc(C(=O)CSc2nccc(=O)[nH]2)cc1	-1%	0%	1.6%	-15%	5%	10%	9%	4%
CC(C)(C)c1ccc(NC(=S)NCc2cccs2)cc1	-34%	u	-12%	-4%	-19%	16%	13%	-25%
CCCCCC(O)CCC(=O)NNC1=CC(=O)CC(C)(C)C1 (stereo not drawn)	x	u	x	x	-20%	-3%	0%	1%[46.1 µM]
S=C(c1ccc(-c2ccccc2Cl)o1)N1CCOCC1	-92%	17%	-24%	u	6%	x	-1%	5%
N#C/C(=C\c1cccnc1)C(=O)Nc1ccc(O)cc1F	7%	3%[46.1 µM]	x	x	-1%	-11%	2%	0%[46.1 µM]
Cc1cccc(/C=N/c2sc3c(c2C(=O)OC(C)(C)C)CCN(C)C3)c1O	11%	17%	-6.4%	25%	-1%	-22%	7%	u
Cc1cccc(CN2C(=O)N(c3ccc(C(C)C)cc3)S(=O)(=O)c3ccccc32)c1	x	u	2.0%	6%	x	-5%	x	x
O=C(COc1ccccc1C(=O)NCC1CCCO1)Nc1ccc(Cl)cc1Cl (stereo not drawn)	-3%	3%	x	x	18%	-25%	0%	-12%
Cc1ccc(-c2nnc3n2CCCCC3)cc1	-2%	9%	3.0%	10%	1%	1%	x	40%
CCn1ccnc1C(O)c1cccc2ccccc12 (stereo not drawn)	17%	x	x	x	-5%	-5%	2%	x
CCCCCCC(C)n1[nH]c(=O)c2c(C)cc(=O)[nH]c21 (stereo not drawn)	-4%	-18%	-5.3%	0%	34%	u	3%	u
COCC(=O)N=Nc1c(O)[nH]c2ccccc12	-2%	1%	-10%	-13%	1%	11%	14%	-36%
O=C(O)c1ccc(Cn2cnc3sc4c(c3c2=O)CCCC4)cc1	1%	8%[46.1 µM]	x	x	0%	9%	-1%	2%[46.1 µM]
N#Cc1c(NC(=O)c2cc(C3CC3)on2)sc2c1CCC2	-57%	x	-7.6%	-14%	-7%	11%	-14%	x
S=C(NCCc1ccccc1)Nc1c(Cl)cccc1Cl	-2%	u	x	x	-11%	23%	9%	u
CCN(CCCNC(=O)CCc1nc(-c2ccc(C)cc2)no1)c1cccc(C)c1	-47%	4%	-2.2%	u	-14%	0%	-2%	u
Cc1cc(NC(=O)CCC(=O)N(c2ccc(F)cc2)C(C(=O)NC2CCCC2)c2ccc(C)o2)no1 (stereo not drawn)	-9%	x	x	x	2%	16%	0%	x
COc1ccc(N2CCN(CC(=O)Nc3cccc(S(=O)(=O)N4CCOCC4)c3)CC2)cc1	1%	-10%	4.1%	0%	-9%	u	8%	1%
S=C(NCc1ccccc1)NC1CCCc2ccccc21 (stereo not drawn)	-72%	12%	x	x	-19%	6%	-5%	u
O=C1CC(SCc2nc3ccccc3[nH]2)C(=O)N1c1cccc(F)c1 (stereo not drawn)	9%	15%	-11%	u	32µM*	-7%	-26%	-1%
CNC(=O)CCCN1C(=O)CCn2nc(-c3cn(C)c4ccccc34)cc21	x	0%[46.1 µM]	0.4%	13%	x	-8%	x	x
Cc1ccc(C(c2ccccc2)c2c(C)[nH]c3ccccc23)s1 (stereo not drawn)	x	4%[46.1 µM]	-3.9%	-6%	x	-21%	x	x
COc1cc(S(=O)(=O)Nc2cccnc2)ccc1F	5%	0%	-0.5%	1%	-18%	-4%	-1%	7%
c1ccc2c3c([nH]c2c1)CCNC3	4%	-1%[46.1 µM]	x	x	1%	-6%	-1%	4%[46.1 µM]
Cc1ccc2c(CN3CCCCC3)cc(=O)oc2c1C	-6%	x	x	x	12%	41%[activator]	1%	x
CC(=O)N1CCc2cc(S(=O)(=O)NCC(=O)NCc3ccccc3Cl)ccc21	-4%	11%[46.1 µM]	x	x	-4%	8%	-2%	17%[46.1 µM]
O=C(CNS(=O)(=O)c1ccccc1F)NNC(=O)c1ccc(Br)cc1	x	3%	x	x	-8%	-7%	0%	u
The results go on.
SMILES	NS1 inh	Lassa entry inh	Cruzain Triton	Cruzain noTriton	RE007 growth inh	StopGo reporter	SARS PLP yeast	MARV entry inh
CCOc1nc(N2CCCCC2)nc(-n2cc(-c3ccccc3)nn2)n1	7%	-2%	-2.8%	1%	0%	-3%	-2%	-5%
Cc1ccc(Nc2c(-c3ccc(C)o3)nc3ncccn23)cc1	-5%	-22%[46.1 µM]	x	x	6%	-15%	-1%	u
COc1ccc(N(CC(=O)NC2CCCCC2)C(=O)CCC(=O)Nc2nc(C)cs2)cc1OC	6%	7%	x	x	2%	-3%	1%	6%[46.1 µM]
O=C(C1CCCCC1)N1CCN(c2ccccc2F)CC1	-12%	0%	2.3%	2%	-17%	0%	-2%	-19%
CCOC(=O)c1cc(C#N)c(N2CCCCC2)nc1-c1ccccc1	x	u	x	x	-1%	u	x	u
Cc1ccccc1N1C(=O)CSC1=C(C#N)C#N	x	x	x	x	21%	-14%	-3%	-23%[46.1 µM]
